Bioassay records deposited in PubChem by several laboratories.
Vif TR-FRET: inhibitors of Vif binding to APOBEC3G peptide, primary screen, biochemical, TR-FRET, GST-Vif 1-94, biotin-A3G peptide, dose response retest (AID 1117319) | TR-FRET GST-Vif / biotin-A3G peptide binding; higher % means a stronger effect; test concentration not given here; strong numbers were not always called active | 0.57% of 260,000 active | inhibition, %; hits with a dose series show IC50 in µM;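 active = above the screen mean plus three standard deviations and confirmed in dose response; inconclusive = results disagree or hit not tested in dose response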;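 also: Vif residues 1-94 fused to GST binding biotinylated APOBEC3G peptide 110-148; 0% = full assay without inhibitor and 100% = GST in place of GST-Vif; retest series ran down from 100 µM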
RanGTP-Impb inh: inhibitors of RanGTP-importin-beta interaction, primary screen, biochemical, FRET, CFP-Ran, YFP-importin-beta, homogeneous | cell-free CFP-Ran/YFP-importin-beta FRET ratio | inhibition, % (test concentration not listed) | 1.1% of 300,000 active;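 active = most replicates above 15%; inconclusive = exactly half above 15%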;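 also: 0% = DMSO wells and 100% = Ran loaded with GDP instead of GTP; wells of about 40 µL received 100 nL stock; the first replicate is given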
MLL AF4-AF9 inh: inhibitors of human MLL-AF4/AF9 interaction. P42568. AlphaScreen, biotin-AF4 peptide binding to FLAG-AF9. inhibition, % at 10 µM. 0.47% of 350,000 active. AID 651704;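 active = every replicate reaching a set inhibition limit, whatever the replicate mean, cut at about 25% in these data; inconclusive = mean inhibition reaches that limit but some replicates miss it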;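 also: 0% = plate neutral control median and 100% = total signal loss; the record names both 10 and 1 µM as test concentration; the first replicate is given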
Target sequence (P42568 whole entry, looked up): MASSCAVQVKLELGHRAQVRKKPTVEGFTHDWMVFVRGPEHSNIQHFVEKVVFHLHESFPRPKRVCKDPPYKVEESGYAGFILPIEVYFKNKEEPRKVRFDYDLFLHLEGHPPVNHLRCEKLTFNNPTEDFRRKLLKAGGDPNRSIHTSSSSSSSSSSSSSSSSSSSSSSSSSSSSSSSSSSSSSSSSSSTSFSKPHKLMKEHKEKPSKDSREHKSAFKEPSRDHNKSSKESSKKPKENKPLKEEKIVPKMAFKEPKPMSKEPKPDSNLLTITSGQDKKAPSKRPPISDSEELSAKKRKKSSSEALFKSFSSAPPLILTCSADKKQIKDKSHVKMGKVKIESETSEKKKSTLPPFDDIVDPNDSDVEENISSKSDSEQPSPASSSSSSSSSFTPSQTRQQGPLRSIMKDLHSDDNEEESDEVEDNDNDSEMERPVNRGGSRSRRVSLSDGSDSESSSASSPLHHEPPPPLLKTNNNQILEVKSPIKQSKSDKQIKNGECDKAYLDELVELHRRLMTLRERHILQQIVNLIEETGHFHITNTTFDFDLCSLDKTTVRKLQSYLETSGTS
Calb FLC: affects C. albicans growth with fluconazole; growth inhibition, % (concentration not given with the values); 0.57% of 300,000 active; C. albicans CaCi-2 (fluconazole-resistant clinical isolate) + fluconazole, Alamar Blue growth, 48 h;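 active = most replicates above 75%; inconclusive = exactly half above 75%; inactive = most below 75%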;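 also: all wells also contain fluconazole at 8 µg/ml as a sub-toxic cotreatment; 0% = median of DMSO wells and 100% = median of geldanamycin control wells; wells of about 8 µL received 7.5 nL stock; the first replicate is given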
Beta cell apopt: beta cell apoptosis inhibition. 0.8% of 300,000 active. protection from apoptosis, % (no concentration beside the values). AID 435005. INS-1E cytokine-induced death, ATP luminescence, 48 h; percent of positive-control rescue, neutral wells zero;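 active = all replicates at 75% or more, or half of them and the mean; inconclusive = half reach 75% but not the mean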;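 also: 0% = cytokine-treated negative control wells and 100% = positive control rescue; higher means more ATP so stronger rescue from cytokine killing; wells of about 40 µL received 100 nL stock; the first replicate is given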
Bfl-1 A1 inh: inhibitors of the anti-apoptotic protein A1, read as caspase activation | MEF A1-2A-BIM cells, Caspase-Glo 3/7 luminescence, 3 h; percent of clofoctol response, vehicle zero | caspase activation, % (concentration not given with the values) | 0.066% of 330,000 active;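 active = over half of replicate activation scores above 10%, or exactly half above 10 with the replicate mean above 10; inconclusive = replicate mean below 10 yet half the replicates above 10; inactive = over half of replicates below 10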;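 also: wells of about 30 µL received 50 nL stock; many hits fall short of the cut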
T cruzi repl: blocks replication of Trypanosoma cruzi | inhibition, % (no concentration beside the values) | T. cruzi beta-gal in NIH3T3, luminescence, 90 h | 1.4% of 300,000 active;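 active = mean inhibition across valid replicates above about 55%, limit read from the data; inconclusive = mean below that limit but half or more replicates reach it; inactive = mean below it, under half of replicates reach it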;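 also: signal also drops with host cell toxicity which is not excluded here; 0% = plate median of DMSO wells and 100% = zero luminescence signal; higher percent means less beta-gal luminescence so fewer parasites; stock transfer was 50 nL into about 50 µL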
rRNA inh HTS: inhibitors of bacterial rRNA selective over humanized ribosomes. E. coli WT GFP vs humanized-ribosome RFP mutants, fluorescence, 24 h; active compounds read low; DMSO median 0, no signal -100. GFP signal change (wild-type ribosome), % (concentration not given with the values). 1.6% of 350,000 active. AID 720706;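 active = significant combined selectivity score with lowered wild-type GFP, culture density cut under 30%, mutant RFP and density less affected; inactive = any of these conditions unmet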; also: one replicate is shown; some compounds called inactive have numbers as strong as hits
rRNA inh HTS OD600: further read-out of rRNA inh HTS, marked with its call; OD600 change, %; measured here: OD600 growth;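 optical density of the mix in the first replicate; 0 = DMSO median and -100 = no signal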
rRNA inh HTS RFP: second read-out of rRNA inh HTS, no call of its own (marks repeat the call); RFP signal change, %; measured here: RFP humanized mutant strains;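 first replicate; 0 = DMSO median and -100 = no signal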
An asterisk follows results filed as active.

`COc1cccc(C(=O)NC(=S)Nc2ccccc2N2CCOCC2)c1` gave Vif TR-FRET 0%, RanGTP-Impb inh -0.1, Calb FLC 5, Beta cell apopt 8, Bfl-1 A1 inh 0.1 and T cruzi repl -3.
For CN(C)/C=C/C(=O)c1cc(F)cc(C(F)(F)F)c1 the results were Vif TR-FRET -9%, RanGTP-Impb inh -1.0, MLL AF4-AF9 inh -3.0, Calb FLC 2, Beta cell apopt 2, Bfl-1 A1 inh 0.1, T cruzi repl -22, rRNA inh HTS 6, rRNA inh HTS OD600 3 and rRNA inh HTS RFP -1.8.
COc1ccc2c(c1)C(NC(=O)C(F)(F)F)CC2=O (centres undefined) was read as Vif TR-FRET 7%, RanGTP-Impb inh -2.5, Calb FLC inconclusive, Beta cell apopt -4, Bfl-1 A1 inh -0.9 and T cruzi repl -12.
For Cc1ccc(C(=O)OCC(=O)N2CCC(c3ccccc3)=N2)cc1 the results were Vif TR-FRET -3%, MLL AF4-AF9 inh -1.7, Beta cell apopt -9, Bfl-1 A1 inh -1.0, rRNA inh HTS 4, rRNA inh HTS OD600 5 and rRNA inh HTS RFP -1.8.
For COc1ccc(-c2cn3cc([N+](=O)[O-])ccc3n2)cc1OC the results were Vif TR-FRET 3%, RanGTP-Impb inh -2.8, MLL AF4-AF9 inh 3.2, Calb FLC 9, Beta cell apopt 5, Bfl-1 A1 inh -1.2 and T cruzi repl 7.
For COc1ccc(CCNC(=O)CSc2cn(Cc3cccc(C)c3)c3ccccc23)cc1OC the results were Vif TR-FRET 21%, RanGTP-Impb inh 1.3, MLL AF4-AF9 inh -0.2, Calb FLC -2, Beta cell apopt -1, Bfl-1 A1 inh -0.6, T cruzi repl 39, rRNA inh HTS -6, rRNA inh HTS OD600 -9 and rRNA inh HTS RFP -1.2.
Screening COc1ccccc1C(=O)OCC(=O)NC(=O)NCc1ccccc1 returned Vif TR-FRET 2%, RanGTP-Impb inh -2.6, MLL AF4-AF9 inh -5.2, Calb FLC 0, Beta cell apopt -5, Bfl-1 A1 inh 0.0, T cruzi repl -8, rRNA inh HTS 7, rRNA inh HTS OD600 5 and rRNA inh HTS RFP -0.3.
CN(C)c1ccc(Nc2ccc([N+](=O)[O-])cn2)cc1 was read as RanGTP-Impb inh 4.5, MLL AF4-AF9 inh 12, Calb FLC -5, Bfl-1 A1 inh -0.1, T cruzi repl 22, rRNA inh HTS 7, rRNA inh HTS OD600 10 and rRNA inh HTS RFP -0.5.
Screening O=c1cc(-c2ccccc2)[nH]c2ccccc12 returned Vif TR-FRET 9%, RanGTP-Impb inh -3.3, Calb FLC 5, Beta cell apopt 28, Bfl-1 A1 inh 1.1 and T cruzi repl 13.
`CNC(=O)c1cc(S(=O)(=O)Nc2ccc3c(c2)OCO3)ccc1C` gave Vif TR-FRET 5%, RanGTP-Impb inh -1.0, MLL AF4-AF9 inh -0.8, Calb FLC 9, Beta cell apopt -4, Bfl-1 A1 inh 0.8, T cruzi repl -5, rRNA inh HTS 6, rRNA inh HTS OD600 11 and rRNA inh HTS RFP 0.6.
`O=C(NC1CCCCCC1)c1ccc2nc3cc(Cl)ccc3c(=O)n2c1` gave RanGTP-Impb inh 12, MLL AF4-AF9 inh -1.1, Calb FLC 1, Beta cell apopt 0, Bfl-1 A1 inh -0.2, T cruzi repl 7, rRNA inh HTS 16, rRNA inh HTS OD600 12 and rRNA inh HTS RFP 4.7.
CCC/C=C(\CCC)C(NC(=O)c1ccc(C(=O)OC)cc1)c1ccc(C(=O)OC)cc1 (centres undefined) was read as RanGTP-Impb inh 2.0, MLL AF4-AF9 inh -2.1, Calb FLC -2, Beta cell apopt -5, Bfl-1 A1 inh -0.8, T cruzi repl 15, rRNA inh HTS 9, rRNA inh HTS OD600 7 and rRNA inh HTS RFP -8.2.
CCSc1ccccc1C(=O)N1CCN(Cc2ccc3c(c2)OCO3)CC1 was read as Vif TR-FRET 3%, RanGTP-Impb inh -3.7, Calb FLC -39, Beta cell apopt -1, Bfl-1 A1 inh 1.1 and T cruzi repl 5.
For CCCN1CCN(S(=O)(=O)c2ccc3c(c2)CCC(=O)N3)CC1 the results were Vif TR-FRET 9%, MLL AF4-AF9 inh -2.7, Beta cell apopt -4, Bfl-1 A1 inh -0.3, rRNA inh HTS 2, rRNA inh HTS OD600 8 and rRNA inh HTS RFP -0.4.
For C=CCn1c(CNC(=O)c2ccco2)nnc1SCC(=O)Nc1cccc(F)c1 the results were Vif TR-FRET -9%, RanGTP-Impb inh 1.3, MLL AF4-AF9 inh -2.3, Calb FLC 3, Beta cell apopt -5, Bfl-1 A1 inh 0.3, T cruzi repl -17, rRNA inh HTS -5, rRNA inh HTS OD600 0 and rRNA inh HTS RFP -2.0.
For Cc1ccc(C)c(OCC(=O)Nc2c[nH]c(=O)[nH]c2=O)c1 the results were RanGTP-Impb inh -0.6, MLL AF4-AF9 inh 2.2, Calb FLC -2, Beta cell apopt -1, Bfl-1 A1 inh 0.0, T cruzi repl -6, rRNA inh HTS 10, rRNA inh HTS OD600 4 and rRNA inh HTS RFP 1.5.
Screening Cc1csc(NC(=O)CCC(=O)N(CC(=O)NC2CCCC2)Cc2ccccc2)n1 returned RanGTP-Impb inh 0.0, MLL AF4-AF9 inh 3.0, Calb FLC -8, Beta cell apopt -4, Bfl-1 A1 inh -0.1, T cruzi repl 1, rRNA inh HTS 1, rRNA inh HTS OD600 5 and rRNA inh HTS RFP 1.8.
Screening Nc1cc[n+](CC(=O)Nc2ccccc2)cc1 returned Vif TR-FRET 11%, RanGTP-Impb inh -2.3, MLL AF4-AF9 inh 0.8, Calb FLC -12, Beta cell apopt -7, Bfl-1 A1 inh 0.5, T cruzi repl -11, rRNA inh HTS 25, rRNA inh HTS OD600 20 and rRNA inh HTS RFP -0.1.
Screening O=[N+]([O-])c1ccccc1N/N=C1\CCc2ccccc21 returned Vif TR-FRET -3%, RanGTP-Impb inh -3.7, MLL AF4-AF9 inh -1.9, Calb FLC 2, Beta cell apopt 6, Bfl-1 A1 inh -3.6, T cruzi repl -11, rRNA inh HTS 5, rRNA inh HTS OD600 9 and rRNA inh HTS RFP 0.6.
`O=C(O)CCC(=O)NCc1c(Cl)cccc1Sc1ccc(Cl)cc1` gave RanGTP-Impb inh 4.4, MLL AF4-AF9 inh -0.9, Calb FLC 1, Beta cell apopt 5, Bfl-1 A1 inh 0.3, T cruzi repl 9, rRNA inh HTS -25*, rRNA inh HTS OD600 -8.5* and rRNA inh HTS RFP -0.3*.
For COc1ccc2c(C)cc(SCc3c(C)noc3C)nc2c1 the results were Vif TR-FRET 8%, RanGTP-Impb inh 2.3, MLL AF4-AF9 inh 4.0, Calb FLC -1, Beta cell apopt -12, Bfl-1 A1 inh -1.0, T cruzi repl 17, rRNA inh HTS -31, rRNA inh HTS OD600 -25 and rRNA inh HTS RFP -6.2.
For Cc1cc(N)n2ncc(-c3ccc(Cl)cc3)c2n1 the results were Vif TR-FRET 3%, RanGTP-Impb inh 1.4, Calb FLC 28, Beta cell apopt -5, Bfl-1 A1 inh -0.8 and T cruzi repl 4.
Screening O=C(NCC1CCCO1)C1CCC(CNS(=O)(=O)c2ccccc2)CC1 (centres undefined) returned Vif TR-FRET -4%, RanGTP-Impb inh -0.7, Beta cell apopt 0, Bfl-1 A1 inh -0.4 and T cruzi repl -7.
`CN(c1ccccc1)S(=O)(=O)c1ccc(Cl)c(C(=O)Nc2ccc(-c3nc4ccccc4[nH]3)cc2)c1` gave Vif TR-FRET 8%, RanGTP-Impb inh -1.4, Calb FLC inconclusive, Beta cell apopt 5, Bfl-1 A1 inh 0.3 and T cruzi repl 57*.
`CC(Oc1ccc2ccccc2c1)C(=O)N/N=C/c1cccnc1` (centres undefined) gave RanGTP-Impb inh 4.5, MLL AF4-AF9 inh 2.2, Calb FLC inconclusive, Beta cell apopt 0, Bfl-1 A1 inh 0.4, T cruzi repl -7, rRNA inh HTS -3, rRNA inh HTS OD600 -6 and rRNA inh HTS RFP 0.9.
CC(C)C(=O)Nc1nnc(COc2ccc(Cl)cc2)s1 was read as Vif TR-FRET 16%, RanGTP-Impb inh 0.5, Calb FLC -9, Beta cell apopt -5, Bfl-1 A1 inh 0.6, T cruzi repl 9, rRNA inh HTS 2, rRNA inh HTS OD600 2 and rRNA inh HTS RFP -3.3.
Screening CCC1=Nc2ccccc2NC2=C1C(=O)CCC2 returned Vif TR-FRET inconclusive, RanGTP-Impb inh inconclusive, Calb FLC -10, Beta cell apopt -3, Bfl-1 A1 inh 0.4 and T cruzi repl 7.
`COc1ccc(-c2nc(=S)c3c(n2CCN2CCOCC2)CC(C)(C)OC3)cc1` gave Vif TR-FRET 9%, RanGTP-Impb inh -5.0, Calb FLC 6, Beta cell apopt -1, Bfl-1 A1 inh -0.9 and T cruzi repl -14.
`C=CCOn1c(=O)c(-c2ccc(F)cc2)[n+]([O-])c2ccccc21` gave Vif TR-FRET 9%, RanGTP-Impb inh -5.4, MLL AF4-AF9 inh -2.4, Calb FLC 3, T cruzi repl -6, rRNA inh HTS 4, rRNA inh HTS OD600 12 and rRNA inh HTS RFP 0.8.
`O=C(CSc1c[nH]c2ccccc12)NCc1ccc2c(c1)OCO2` gave Vif TR-FRET inconclusive, RanGTP-Impb inh 7.7, MLL AF4-AF9 inh 0.3, Calb FLC -18, Beta cell apopt -5, Bfl-1 A1 inh 0.1, T cruzi repl -25, rRNA inh HTS 0, rRNA inh HTS OD600 -6 and rRNA inh HTS RFP 4.1.
Screening COc1cc2c(c(OC)c1OC)-c1ccc(OC)c(=O)cc1[C@@H](N(C)CC#CCO)CC2 returned Vif TR-FRET 1%, RanGTP-Impb inh -1.2, MLL AF4-AF9 inh 1.1, Calb FLC -7, Beta cell apopt 48, Bfl-1 A1 inh 0.3, T cruzi repl 22, rRNA inh HTS 4, rRNA inh HTS OD600 10 and rRNA inh HTS RFP 5.0.
`CCOc1ccc(C(=O)c2ccccc2C(=O)O)cc1OCC` gave Vif TR-FRET -5%, RanGTP-Impb inh 1.1, MLL AF4-AF9 inh 0.9, Calb FLC -3, Beta cell apopt -7, Bfl-1 A1 inh 0.1, T cruzi repl -7, rRNA inh HTS -10, rRNA inh HTS OD600 -7 and rRNA inh HTS RFP -4.7.
O=C(Nc1ccccc1)c1ccccc1Oc1ccc(C(F)(F)F)cc1[N+](=O)[O-] was read as Vif TR-FRET 15%, RanGTP-Impb inh -5.7, MLL AF4-AF9 inh 15, Calb FLC 0, Beta cell apopt 7, Bfl-1 A1 inh -0.3, T cruzi repl -10, rRNA inh HTS -21, rRNA inh HTS OD600 -18 and rRNA inh HTS RFP 17.
Screening CCN(CC)CCNC(=O)CCN1N=C(c2ccccc2)CCC1=O returned Vif TR-FRET -2%, RanGTP-Impb inh 1.1, MLL AF4-AF9 inh 0.6, Calb FLC 2, Beta cell apopt -3, Bfl-1 A1 inh -0.6, T cruzi repl -3, rRNA inh HTS 3, rRNA inh HTS OD600 12 and rRNA inh HTS RFP -0.6.
For Cc1cc(C)cc(NC(=O)N2CCCN(c3ncccc3[N+](=O)[O-])CC2)c1 the results were Vif TR-FRET 1%, RanGTP-Impb inh -2.1, MLL AF4-AF9 inh 4.0, Calb FLC 0, Beta cell apopt 3, Bfl-1 A1 inh -0.1, T cruzi repl 16, rRNA inh HTS -23, rRNA inh HTS OD600 -20 and rRNA inh HTS RFP -1.6.

The list is partial (hit frequency here may not be typical).
